# Bioassay records from PubChem BioAssay.
# KCNQ2 block: KCNQ2 potassium channel inhibitors, primary screen, cell-based, CHO-K1, FluxOR thallium flux, B-score (AID 2156). B-score at 10 µM. O88943. 20 min; hits give low values; only compounds with negative scores are shown here; some inactives read as strong as hits. actives 1.1% (n = 310,000);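 active = fluorescence ratio B-score at most minus 3 library SDs, with starting brightness B-score within 2 library SDs, cut at about -5.5 in these data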
# Target sequence (O88943 whole entry, looked up): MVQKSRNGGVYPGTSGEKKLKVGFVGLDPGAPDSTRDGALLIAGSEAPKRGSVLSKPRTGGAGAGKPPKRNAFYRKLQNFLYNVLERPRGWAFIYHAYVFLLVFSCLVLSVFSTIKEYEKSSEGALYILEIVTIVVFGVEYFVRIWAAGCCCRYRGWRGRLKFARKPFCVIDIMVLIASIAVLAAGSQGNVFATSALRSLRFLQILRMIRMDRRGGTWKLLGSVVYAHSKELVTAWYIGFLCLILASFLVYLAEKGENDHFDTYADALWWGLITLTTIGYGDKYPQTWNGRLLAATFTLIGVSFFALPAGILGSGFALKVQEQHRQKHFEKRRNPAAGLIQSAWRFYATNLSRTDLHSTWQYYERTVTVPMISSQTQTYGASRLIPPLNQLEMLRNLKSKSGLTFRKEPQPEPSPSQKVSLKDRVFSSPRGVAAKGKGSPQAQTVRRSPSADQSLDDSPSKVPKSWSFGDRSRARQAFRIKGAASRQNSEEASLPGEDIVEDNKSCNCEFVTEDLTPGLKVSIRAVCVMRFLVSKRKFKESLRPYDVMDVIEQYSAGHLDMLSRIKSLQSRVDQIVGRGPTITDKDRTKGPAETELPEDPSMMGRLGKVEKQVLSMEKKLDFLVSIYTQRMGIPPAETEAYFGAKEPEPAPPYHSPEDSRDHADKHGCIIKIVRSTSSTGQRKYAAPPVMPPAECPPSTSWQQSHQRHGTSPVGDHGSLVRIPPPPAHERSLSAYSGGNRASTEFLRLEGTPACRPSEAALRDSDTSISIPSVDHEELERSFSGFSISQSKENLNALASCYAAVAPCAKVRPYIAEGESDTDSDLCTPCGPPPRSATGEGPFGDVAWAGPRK
# KCNQ2 block baseline: recorded beside KCNQ2 block, whose call it bears; B-score; measured here: initial fluorescence intensity artifact check;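 brightness before thallium and not channel activity; 0 = typical well and far values either way flag optical interference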
# * hit, by the source's call; i = inactive.
SMILES,KCNQ2 block,KCNQ2 block baseline
Cc1ccc(N(C(=O)c2snc(C(N)=O)c2N)C(C(=O)NC2CCCC2)c2ccncc2)cc1 (stereo not given),i,0.08
C=CCSC1=C(C#N)C(c2ccccc2OCC)CC(=O)N1 (stereo not given),i,0.44
O=C(N[C@@H](Cc1ccccc1)C(=O)NCCc1c[nH]c2ccccc12)c1ccco1,i,1.17
O=[N+]([O-])c1ccc(NCCN2CCOCC2)c([N+](=O)[O-])c1,i,-0.45
O=C(CSc1nc2ccccc2c(=O)n1-c1ccccc1F)Nc1ccc2c(c1)CCC2,i,-0.07
CC(=O)OC[C@H]1O[C@H](C/C=N/OC[C@@H](O)[C@H]2O[C@@H]3OC(C)(C)O[C@@H]3[C@H]2O)C=C[C@@H]1OC(C)=O,i,0.22
O=S(Cc1ccc(Cl)cc1)CC(O)COc1ccc(Cl)cc1 (stereo not given),i,-1.51
Cc1nc([N+](=O)[O-])c(Br)n1CC(=O)c1cccc([N+](=O)[O-])c1,i,0.03
C=CCNC(=O)/C(C#N)=C/c1c(N2CCN(c3ccc(OC)cc3)CC2)nc2c(C)cccn2c1=O,i,0.44
Cc1ccc(-c2ccc(SCC(=O)Nc3ccc4c(c3)OCCO4)nn2)cc1,i,1.02
CCc1nnc(NC(=O)c2oc3cc(C)c(C)cc3c2C)s1,i,-0.02
Cc1ccc(Cl)cc1N1CCN(S(=O)(=O)c2c(C)[nH]c(C)c2C(=O)N2CCCC2)CC1,i,1.03
CSc1nc(Oc2ccc(Cl)cc2)c2sccc2n1,i,0.1
O=C1c2ccccc2C(=O)N1CCN1CCc2ccccc21,i,-0.97
CC(OCCN(C)C)C(=O)C12CC3CC(CC(C3)C1)C2 (stereo not given),i,-0.59
COC(=O)c1ccc(Sc2ccccn2)c([N+](=O)[O-])c1,i,0.9
Cc1ccc(-n2c(SCC(=O)N/N=C/c3ccccc3C(=O)O)nnc2-c2ccccc2)cc1,i,-3.15
COc1ccc(C2C(C(C)=O)=C(C)N=c3s/c(=C/c4ccc5c(c4)OCO5)c(=O)n32)cc1 (stereo not given),i,0.62
O=C(NC(=S)Nc1cccc2cnccc12)c1ccccc1,i,0.51
COc1cc(/C=C2\SC(=S)N(CCC(=O)NCCc3ccccc3)C2=O)cc(OC)c1OC,i,1.23
Cc1ccc(C(O)(C(=O)NNc2ccccn2)c2ccc(C)cc2)cc1,i,-0.79
O=C(CN1CCCC1)Nc1cc(C(F)(F)F)ccc1Cl,i,-2.09
C[C@@H]1CCC(=O)N(C[C@@H](C)CSc2ccccc2)CC1,i,-0.03
CC(=O)NN1C(=O)c2ccc(Oc3ccc([N+](=O)[O-])cc3)cc2C1=O,i,2.76
O=C(O)C1CC=CCC1C(=O)Nc1ccc(N2CCN(Cc3ccccc3)CC2)cc1 (stereo not given),i,0.44
# (more compounds)
SMILES,KCNQ2 block,KCNQ2 block baseline
CCCC(=O)N1CCN(Cc2nc3cc([N+](=O)[O-])ccc3n2C)CC1,i,0.26
O=Cc1[nH]c2ccccc2c1N(C(=O)CCl)c1ccccc1,i,0.85
CCC(CC)NC(=O)c1ccc2nc[nH]c2c1,i,-0.92
O=C(O)c1ccccc1NC(=O)c1ccccc1Nc1ccccc1,i,-1.08
O=C(CSc1nnc(-c2ccccc2O)o1)Oc1ccc(Br)cc1,i,2.12
COc1ccc(OC)c(NC(=O)c2cn(C)c(=O)c3cc(OC)c(OC)cc23)c1,i,0.32
O=C1c2ccccc2C(=O)N1CN(C(=O)COc1ccccc1)c1ccccc1,i,-0.19
CCOC(=O)c1oc2ccccc2c1CSc1nnnn1-c1ccc(C)cc1,i,1.44
COc1ccc(CNCCc2ccc([N+](=O)[O-])cc2)c(OC)c1OC,i,0.59
COC(=O)c1ccc(N2OC3(C)C=CC2CC3)cc1 (stereo not given),i,0.87
Cc1noc(C)c1COc1ccc(C(=O)OCC(=O)NCCN2C(=O)CSC2=O)cc1,i,-1.04
COc1cc(SC)ccc1C(=O)N1CC(C)OC(C)C1 (stereo not given),i,1.14
Cc1cccc(C)c1NC(=O)CNCC(=O)N(C)C,i,1.8
N#CC1CN(Cc2ccccc2)CN(Cc2ccccc2)C1,i,3.22
CC(C)c1cc(C(=O)N/N=C/c2cccnc2)cs1,i,1.87
C=CCOC(=O)CCP(=O)(CCC(=O)OCC=C)c1ccccc1,i,0.13
Cc1cccc(Oc2nc3c(c(=O)n(C)c(=O)n3C)n2C)c1,i,1.84
O=C(COc1ccccc1)Nc1ccc(S(=O)(=O)N2CCCCCC2)cc1,i,1.03
CCCOC(c1ccccc1)(c1ccc(C(F)(F)F)cc1)C(Oc1nc(C)cc(C)n1)C(=O)O (stereo not given),i,-1.52
CNC(=O)NCCN1CCCC1=O,i,0.76
C=C(C)CSc1nnc(-c2cc(OC)c(OC)c(OC)c2)n1N,i,-0.33
COc1cc(C)nc(OCCNC(=O)COc2ccc(Cl)cc2C)n1,-7.52*,0.96*
CC(=O)N1N=C(N)SC1(C)C,i,-0.04
CC(C)(C)C1CCc2onc(C(=O)Nc3ccc4c(c3)OCO4)c2C1 (stereo not given),i,0.33
O=C(CSc1ccc(Cl)cc1)N1CCN(c2ccc([N+](=O)[O-])cc2Cl)CC1,i,-0.53
# (continued)
SMILES,KCNQ2 block,KCNQ2 block baseline
O=C(COc1cccc(Cl)c1)Nc1ccccc1N1CCCCC1,i,4.13
COc1ccc(CCNC(=O)/C=C/c2ccco2)cc1,i,0.63
Cc1ccc(C(=O)/C=C/c2c(C)nn(-c3ccccc3)c2Cl)cc1,i,0.09
COc1ccc(COC(=O)c2ccc(Cl)c(S(=O)(=O)N3CCOCC3)c2)cc1F,i,-1.78
CCn1ccnc1CN(C)Cc1nc(-c2ccccc2)no1,i,0.65
FC(F)(F)Oc1ccc(NC(=S)NCCCN2CCOCC2)cc1,i,0.66
Cc1ccccc1CSCC(=O)Nc1ccccc1Br,i,-0.22
CCCCc1cc(=O)oc2cc(C)cc(OCC(=O)NCc3ccccn3)c12,i,-0.04
O=C(COC(=O)c1ccc(Br)o1)NCc1cccs1,i,0.15
O=S(Cc1ccc(Br)cc1)Cc1nnc(SCc2c(Cl)cccc2Cl)n1-c1ccccc1 (stereo not given),i,1.63
O=C(c1ccccc1)N1N=C(c2ccccc2)CC1c1ccc2nccnc2c1 (stereo not given),i,0.89
CCOC(=O)CNC(=O)CSc1nnc(-c2cccc(C)c2)n1-c1ccc(OC)cc1,i,-0.59
CN=C1SC(CC(=O)Nc2sc(C)c(C)c2C(=O)OC)C(=O)N1C (stereo not given),i,-0.24
C[C@@]12C(=O)N(c3ccc(F)cc3)C(=O)N1[C@@H]1c3ccccc3OC[C@@H]1[C@H]2c1ccccc1,i,0.37
O=C(O)C1CC=CCC1C(=O)Nc1ccccc1C(=O)N1CCN(c2ccc(Cl)cc2)CC1 (stereo not given),i,-0.68
Cc1ccccc1Oc1cc(NC(=O)Cn2cnc([N+](=O)[O-])c2)cc([N+](=O)[O-])c1,i,0.79
CCOC(=O)N1CCN(C(=O)COc2cccc3c2CCN(Cc2cccc(C)c2)C3=O)CC1,i,-1.18
CC(=O)Nc1ccc(NC(=O)C2CCCN2C(=O)Nc2cccc(F)c2)cc1 (stereo not given),i,0.48
Cc1cc(C)cc(NC(=O)CN2CCCN(S(=O)(=O)c3ccc(Br)s3)CC2)c1,i,0.32
Cc1cc(C)n(-c2ccc(C(=O)Nc3cccc(S(=O)(=O)N(C)C)c3)cc2)n1,i,-1.74
COc1cc([C@H]2[C@@H]3CCCC[C@]3(O)CCN2CC(=O)Nc2ccc(C)cc2)ccc1O,i,1.08
CCOc1ccc(C(=O)N2CCN(CCc3ccccc3)CC2)cc1OCC,i,-0.17
C=CCn1c(C)cc(C(=O)COC(=O)[C@@H](NC(=O)c2ccccc2Cl)C(C)C)c1C,-7.49*,-1.57*
COc1ccccc1N(C)S(=O)(=O)c1ccc(C(=O)NCCc2ccc(F)cc2)cc1,i,0.45
COc1cc(C(=O)NCc2cccc3ccccc23)cc(Cl)c1OC,i,-0.52
# The list continues.
SMILES,KCNQ2 block,KCNQ2 block baseline
COc1ccc(S(=O)(=O)n2ccnc2)c2cccnc12,i,2.65
O=C(Nc1ccc(N2CCOCC2)c(F)c1)c1cccs1,i,2.1
COc1cc(C(=O)N2CCCN(c3nc4cc(C)ccc4cc3C#N)CC2)cc(OC)c1OC,i,0.01
CCCn1c(C(CO)Nc2nc(C)cs2)nc2ccccc21 (stereo not given),i,0.37
O=C1c2cccnc2C(Nc2ccc(F)c(Cl)c2)N1Cc1cccs1 (stereo not given),i,-0.66
COc1ccc(N(C(=O)c2cnccn2)C(C(=O)NC2CCCCC2)c2ccc(Cl)cc2)cc1 (stereo not given),i,-0.03
O=C(O)Cn1c(=O)n(Cc2ccccc2)c2ccccc21,i,-3.18
COc1ccc(NS(=O)(=O)c2ccc3c(c2)NC(=O)CO3)c(OC)c1,i,-2.43
COC(=O)c1ccc(NC(=S)N2CCN(Cc3ccccc3)CC2)cc1,i,0.53
Cc1ccc(CNC(=O)C2CC(=O)N(CCC(C)C)C2)cc1 (stereo not given),i,-1.98
CCCOc1ccc(C(O)(CCN2CCCCC2)c2ccccc2OC)cc1 (stereo not given),i,-0.01
O=C(NC1CC1)c1sc2cc([N+](=O)[O-])ccc2c1Cl,i,-0.7
Cc1ccc(-n2c(N)c(S(=O)(=O)c3ccccc3)c3nc4ccccc4nc32)cc1,i,0.64
CC(CC(C)C(=O)Nc1ccccc1C(C)(C)C)C(=O)O (stereo not given),i,2.1
Cc1ccc(C(=O)CSc2nnnn2Cc2ccccc2)cc1C,i,1.6
N#CCSc1nnc(N)s1,i,-1.31
O=C(CN1CCCCCC1)NN(Cc1ccccc1)c1ccccc1,i,0.64
Cc1n[nH]c(=S)n(/N=C/c2cccc([N+](=O)[O-])c2)c1=O,i,-0.47
Cc1ccccc1OCC(=O)NNC(=O)Nc1ccc(Cl)cc1,i,0.83
CC(=O)Nc1ccc(NC(=O)CCNC(=O)c2ccccc2Cl)cc1,i,0.67
CC1=C(C(=O)Nc2ccc(C)cc2C)C(c2cccc([N+](=O)[O-])c2)n2nc(C(=O)OC(C)C)nc2N1 (stereo not given),i,-0.75
Cc1cccc(N2CCN(C(=O)CCCCCn3c(=S)[nH]c4ccc(N5CCOCC5)cc4c3=O)CC2)c1C,i,-0.45
C=CCn1c(-c2cc3c(s2)CCC(CC)C3)n[nH]c1=S (stereo not given),i,0.12
CCCc1oc(C(=O)O)cc1CN1CCCC1,i,-0.74
O=C(O)CCC(=O)Nc1ccccc1C(=O)N1CCN(c2ccc(Cl)cc2)CC1,i,-1.49
Cc1cc(=O)oc2cc(OCC(=O)c3ccc4c(c3)NC(=O)CO4)ccc12,i,0.02
CCN(CC(=O)Nc1ccc(Cl)c(S(=O)(=O)N(C)C)c1)Cc1nc2ccccc2c(=O)[nH]1,i,-0.68

# By substructure, the compounds so far with a Cl atom (21)
SMILES,KCNQ2 block,KCNQ2 block baseline
O=S(Cc1ccc(Cl)cc1)CC(O)COc1ccc(Cl)cc1 (stereo not given),i,-1.51
Cc1ccc(Cl)cc1N1CCN(S(=O)(=O)c2c(C)[nH]c(C)c2C(=O)N2CCCC2)CC1,i,1.03
CSc1nc(Oc2ccc(Cl)cc2)c2sccc2n1,i,0.1
O=C(CN1CCCC1)Nc1cc(C(F)(F)F)ccc1Cl,i,-2.09
O=Cc1[nH]c2ccccc2c1N(C(=O)CCl)c1ccccc1,i,0.85
COc1cc(C)nc(OCCNC(=O)COc2ccc(Cl)cc2C)n1,-7.52*,0.96*
O=C(CSc1ccc(Cl)cc1)N1CCN(c2ccc([N+](=O)[O-])cc2Cl)CC1,i,-0.53
O=C(COc1cccc(Cl)c1)Nc1ccccc1N1CCCCC1,i,4.13
Cc1ccc(C(=O)/C=C/c2c(C)nn(-c3ccccc3)c2Cl)cc1,i,0.09
COc1ccc(COC(=O)c2ccc(Cl)c(S(=O)(=O)N3CCOCC3)c2)cc1F,i,-1.78
O=S(Cc1ccc(Br)cc1)Cc1nnc(SCc2c(Cl)cccc2Cl)n1-c1ccccc1 (stereo not given),i,1.63
O=C(O)C1CC=CCC1C(=O)Nc1ccccc1C(=O)N1CCN(c2ccc(Cl)cc2)CC1 (stereo not given),i,-0.68
C=CCn1c(C)cc(C(=O)COC(=O)[C@@H](NC(=O)c2ccccc2Cl)C(C)C)c1C,-7.49*,-1.57*
COc1cc(C(=O)NCc2cccc3ccccc23)cc(Cl)c1OC,i,-0.52
O=C1c2cccnc2C(Nc2ccc(F)c(Cl)c2)N1Cc1cccs1 (stereo not given),i,-0.66
COc1ccc(N(C(=O)c2cnccn2)C(C(=O)NC2CCCCC2)c2ccc(Cl)cc2)cc1 (stereo not given),i,-0.03
O=C(NC1CC1)c1sc2cc([N+](=O)[O-])ccc2c1Cl,i,-0.7
Cc1ccccc1OCC(=O)NNC(=O)Nc1ccc(Cl)cc1,i,0.83
CC(=O)Nc1ccc(NC(=O)CCNC(=O)c2ccccc2Cl)cc1,i,0.67
O=C(O)CCC(=O)Nc1ccccc1C(=O)N1CCN(c2ccc(Cl)cc2)CC1,i,-1.49
CCN(CC(=O)Nc1ccc(Cl)c(S(=O)(=O)N(C)C)c1)Cc1nc2ccccc2c(=O)[nH]1,i,-0.68

# No new results follow: 4 of the compounds above.
SMILES,KCNQ2 block,KCNQ2 block baseline
Cc1ccc(-n2c(N)c(S(=O)(=O)c3ccccc3)c3nc4ccccc4nc32)cc1,i,0.64
CC(CC(C)C(=O)Nc1ccccc1C(C)(C)C)C(=O)O (stereo not given),i,2.1
Cc1ccc(C(=O)CSc2nnnn2Cc2ccccc2)cc1C,i,1.6
N#CCSc1nnc(N)s1,i,-1.31

# A portion of the library. The share of hits here may be higher or lower than overall.
